# Assay outcomes (PubChem)
# AF4-AF9 inh: inhibitors of AF4 peptide binding to AF9, primary screen, biochemical, AlphaScreen, biotin-AF4 peptide, FLAG-AF9, single point; inhibition, % at 10 µM; 0.47% of 350,000 active;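 active = every replicate reaching a set inhibition limit, whatever the replicate mean, cut at about 25% in these data; inconclusive = mean inhibition reaches that limit but some replicates miss it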;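 note: 0% = plate neutral control median and 100% = total signal loss; the record names both 10 and 1 µM as test concentration; the first replicate is given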
# Target sequence (P42568 whole entry, looked up): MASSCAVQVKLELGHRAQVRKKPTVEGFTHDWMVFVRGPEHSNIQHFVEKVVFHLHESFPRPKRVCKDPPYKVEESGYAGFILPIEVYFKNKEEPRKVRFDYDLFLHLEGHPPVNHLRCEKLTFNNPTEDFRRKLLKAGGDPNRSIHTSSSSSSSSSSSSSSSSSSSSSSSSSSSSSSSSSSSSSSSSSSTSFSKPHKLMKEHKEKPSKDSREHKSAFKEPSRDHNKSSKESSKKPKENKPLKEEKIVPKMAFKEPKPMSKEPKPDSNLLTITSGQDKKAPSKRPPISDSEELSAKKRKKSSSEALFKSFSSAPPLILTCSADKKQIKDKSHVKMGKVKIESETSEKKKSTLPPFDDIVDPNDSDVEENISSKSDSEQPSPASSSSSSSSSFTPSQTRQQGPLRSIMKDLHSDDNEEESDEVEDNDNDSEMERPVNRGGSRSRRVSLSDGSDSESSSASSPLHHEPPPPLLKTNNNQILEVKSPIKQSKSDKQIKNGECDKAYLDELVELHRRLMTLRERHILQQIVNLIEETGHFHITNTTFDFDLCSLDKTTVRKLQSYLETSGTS
# Ecoli rRNA inh: reduced GFP signal of wild-type E. coli, primary screen, bacterial rRNA inhibitor project, GFP/RFP fluorescence, OD600, single point; AID 720706, 2013; 1.6% of 350,000 active; E. coli WT GFP vs humanized-ribosome RFP mutants, 24 h; hits give low values; DMSO median 0, no signal -100; GFP signal change (wild-type ribosome), % (concentration not given with the values);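 active = significant combined selectivity score with lowered wild-type GFP, culture density cut under 30%, mutant RFP and density less affected; inactive = any of these conditions unmet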; note: one replicate is shown; some compounds called inactive have numbers as strong as hits
# Ecoli rRNA inh OD600: second read-out of Ecoli rRNA inh, no call of its own (marks repeat the call); OD600 change, %; measured here: OD600 growth;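 optical density of the mix in the first replicate; 0 = DMSO median and -100 = no signal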
# Ecoli rRNA inh RFP: also measured in Ecoli rRNA inh; calls as there; RFP signal change, %; measured here: RFP humanized mutant strains;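 first replicate; 0 = DMSO median and -100 = no signal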
# * = called active by the depositor; ? = inconclusive. This is a subset; rates above refer to the full screens.
# Second line of a record – AF4-AF9 inh, Ecoli rRNA inh RFP, Ecoli rRNA inh OD600, Ecoli rRNA inh
COc1cc(CN2[C@@H]3CNC[C@H]2C3c2ccc(-c3cccnc3)cc2)cc(OC)c1 (some centres not stated)
    14, -1.7, 20, 1
O=C(C[C@@H]1CC[C@H](NS(=O)(=O)c2ccccc2)[C@H](CO)O1)NCc1ccccc1F
    -1.0, 1.1, 3, 0
O=C(Nc1ccc(F)cc1)N1CCCCN2[C@H](CO)[C@H](c3ccc(-c4ccncc4)cc3)[C@H]2C1
    4.5, 7.6, 0, -3
CC(C)[C@@H]1Cc2[nH][nH]c(=O)c2[C@H](C)O1
    1.4, -0.9, 18, 26
CC(C)CC#Cc1ccc2c(c1)O[C@@H](CN(C)Cc1cccnc1)[C@H](C)CN([C@@H](C)CO)S2(=O)=O
    4.8, 2.0, -27, -15
C[C@H]1CN([C@@H](C)CO)C(=O)Cc2cc(NC(=O)CCC(F)(F)F)ccc2O[C@@H]1CN(C)S(=O)(=O)c1cccs1
    -1.7, -1.2, 2, 0
CO[C@@H]1CN(C)C(=O)c2ccc(NC(=O)C3CCOCC3)cc2OC[C@@H](C)N(CC2CC2)C[C@H]1C
    -11, -4.4, 8, 5
Cc1ccc(S(=O)(=O)N[C@@H]2CC[C@@H](CC(=O)NC3CCCCC3)O[C@@H]2CO)cc1
    -1.9, -2.6, 8, 1
CC(C)[C@H](C)NC(=O)N(C)C[C@@H]1OCc2ccccc2-c2c(n(C)c3ccccc23)C(=O)N([C@H](C)CO)C[C@@H]1C
    0.0, 1.9, -1, 2
O=C(C[C@@H]1C[C@H]2c3cc(NC(=O)C4CCOCC4)ccc3O[C@H]2[C@@H](CO)O1)NCc1ccccn1
    0.0, -3.4, 8, 2
CC(C)NC(=O)N(C)C[C@@H]1Oc2cc(-c3cccnc3)ccc2S(=O)(=O)N([C@H](C)CO)C[C@H]1C
    0.2, 0.7, 2, 2
CCOC(=O)C1=CCN(S(=O)(=O)c2ccccc2C)C1c1ccc(Cl)cc1 (configuration not stated)
    -1.2, -4.4, -22, -9
CCCNC(=O)N1C[C@@H](C)[C@@H](OC)CN(C)C(=O)c2cc(NC(C)=O)ccc2OC[C@H]1C
    -0.2, 0.4, 4, 0
COc1ccc(C#Cc2cnc3c(c2)C(=O)N([C@H](C)CO)C[C@H](C)[C@H](CN(C)C(=O)Nc2ccc4c(c2)OCO4)O3)cc1OC
    6.7, 0.0, -2, -3
COC(=O)[C@@]12C[C@@H](CC(=O)N3CCCC3)C(=O)N(Cc3ccco3)C1=CCC(C)(C)C2
    -2.5, -3.4, 7, 9
C[C@H]1CN([C@@H](C)CO)C(=O)Cc2cc(NC(=O)C3CCCCC3)ccc2O[C@@H]1CN(C)Cc1ccc(Oc2ccccc2)cc1
    -0.6, -0.6, -2, -1
C[C@@H]1CN([C@@H](C)CO)C(=O)c2cc(NC(=O)C3CC3)ccc2O[C@@H]1CN(C)S(=O)(=O)c1cccs1
    0.5, 0.5, 7, -1
O=C(C[C@H]1C[C@@H]2c3cc(NC(=O)NC4CCCC4)ccc3O[C@@H]2[C@@H](CO)O1)NC1CCCCC1
    -0.3, 0.5, -13, -11
CO[C@@H]1CC[C@@H]2CCN(C)C(=O)CCCN(C)C(=O)c3cccc(C#N)c3OC[C@@H]1O2
    -0.1, -1.1, 3, 1
CCCN1C[C@H](C)[C@@H](OC)CN(C)C(=O)c2ccc(NC(=O)c3ccccc3)cc2OC[C@@H]1C
    -2.8, 3.2, -8, -2
C[C@H]1CN([C@@H](C)CO)C(=O)c2cc(-c3cccc(F)c3)cnc2O[C@H]1CN(C)C(=O)c1cccc(F)c1
    -0.5, 0.2, 1, 0
COc1ccc(F)cc1-c1cc(NC=O)c2ncc(-c3cc(OC)c(OC)c(OC)c3)n2c1
    4.4, -0.4, -20, -2
CN1C(=O)c2cc(NC(=O)C3CCCC3)ccc2OC[C@@H]2O[C@H](CC(=O)NCCc3ccncc3)CC[C@@H]21
    -2.0, -1.5, -1, -2
C[C@@H]1CN([C@@H](C)CO)C(=O)Cc2cc(NS(C)(=O)=O)ccc2O[C@@H]1CN(C)Cc1ccc(-c2ccccc2)cc1
    7.9, -13, -80, -56
COc1ccc(NC(=S)N2CCC(C(=O)c3ccc(F)cc3)CC2)cc1
    1.5, -3.5, -19, -29
N#C[C@@H]1[C@@H](c2ccc(-c3cccc(F)c3)cc2)[C@H](CO)N1C(=O)NC1CCCC1
    -0.8, 4.6, -63, -24
C[C@@H]1CN([C@@H](C)CO)C(=O)c2cc(NC(=O)CCCN(C)C)ccc2O[C@@H]1CN(C)C(=O)Nc1cccc2ccccc12
    -0.1, -1.3, 2, 0
Cc1ccccc1S(=O)(=O)N1[C@@H](C#N)[C@@H](c2ccc(-c3ccc(F)cc3)cc2)[C@@H]1CO
    0.7, 7.7, -23, 0
C[C@H]1CN([C@@H](C)CO)C(=O)c2cc(-c3cccnc3)cnc2O[C@H]1CN(C)Cc1ccc(-c2ccccc2)cc1
    2.2, 6.9, -7, -7
COC(=O)C1=C(C)N(C)C(=NCc2ccc(OC)cc2)NC1c1cccc(Cl)c1 (configuration not stated)
    3.2, -1.2, -3, 7

# Of the compounds above, these contain two or more sulfur atoms.
# Second line of a record – AF4-AF9 inh, Ecoli rRNA inh RFP, Ecoli rRNA inh OD600, Ecoli rRNA inh
C[C@H]1CN([C@@H](C)CO)C(=O)Cc2cc(NC(=O)CCC(F)(F)F)ccc2O[C@@H]1CN(C)S(=O)(=O)c1cccs1
    -1.7, -1.2, 2, 0
C[C@@H]1CN([C@@H](C)CO)C(=O)c2cc(NC(=O)C3CC3)ccc2O[C@@H]1CN(C)S(=O)(=O)c1cccs1
    0.5, 0.5, 7, -1

# New compounds follow:
# Second line of a record – AF4-AF9 inh, Ecoli rRNA inh RFP, Ecoli rRNA inh OD600, Ecoli rRNA inh
C[C@@H]1CN([C@@H](C)CO)C(=O)Cc2cc(NC(=O)CCCCCC(=O)Nc3ccccc3N)ccc2O[C@@H]1CN(C)C(=O)NC1CCCCC1
    0.9, -0.1, 9, 0
COc1ccccc1C(=O)Nc1ccc2c(c1)OC[C@@H](C)N(C(C)=O)C[C@H](C)[C@@H](OC)CN(C)C2=O
    -8.7, 1.9, 1, -4
CO[C@@H]1CN(C)C(=O)c2cc(NS(=O)(=O)CC(F)(F)F)ccc2OC[C@H](C)N(Cc2ccccn2)C[C@H]1C
    -15, 2.7, 9, 1
CCCNC(=O)N(C)C[C@@H]1Oc2ncc(C#C[C@H](C)O)cc2C(=O)N([C@@H](C)CO)C[C@@H]1C
    -3.6, -2.0, 0, 7
COc1ccc(-c2cnc3c(c2)C(=O)N([C@@H](C)CO)C[C@H](C)[C@@H](CN(C)Cc2ccccc2)O3)cc1
    3.5, 2.3, -6, -2
O=S(=O)(c1ccccc1F)N1CCCCN2[C@H](CO)[C@H](c3ccc(-c4cncnc4)cc3)[C@@H]2C1
    -2.1, 3.7, 10, 3
C[C@H]1CN([C@@H](C)CO)C(=O)c2cc(NC(=O)CCN3CCOCC3)ccc2O[C@@H]1CN(C)C(=O)Nc1cccc2ccccc12
    -1.5, 4.9, 4, 2
Cc1nc([N+](=O)[O-])c(Br)n1CC(=O)c1ccc(F)cc1
    -5.0, 13*, 5.3*, -33*
C[C@H]1CN([C@@H](C)CO)S(=O)(=O)c2ccc(C#CCN(C)C)cc2O[C@H]1CN(C)C(=O)CC1CC1
    -0.5, -1.3, 6, 4
O=C(N[C@H]1CC[C@H](CCNS(=O)(=O)c2ccc(F)cc2)O[C@H]1CO)c1cccnc1
    1.0, -1.2, 0, -2
C[C@@H]1CCCCO[C@H](CN(C)S(=O)(=O)c2cccs2)[C@@H](C)CN([C@H](C)CO)C(=O)c2cc(NS(=O)(=O)c3ccc(F)cc3)ccc2O1
    -4.2, -0.7, 1, -3
C[C@@H]1CCCCO[C@H](CN(C)Cc2ccc(Cl)c(Cl)c2)[C@H](C)CN([C@@H](C)CO)C(=O)c2cc(NC(=O)Nc3ccccc3)ccc2O1
    0.4, 2.2, 4, 0
CO[C@H]1CN(C)C(=O)c2cc(NC(=O)Cc3ccccc3)ccc2OC[C@H](C)N(CC2CC2)C[C@@H]1C
    -0.4, -1.1, -3, 0
Cc1ccc(S(=O)(=O)Nc2ccc3c(c2)C(=O)N([C@@H](C)CO)C[C@H](C)[C@@H](CN(C)S(=O)(=O)c2ccccc2)OCCCC[C@@H](C)O3)cc1
    -0.6, 7.4, -3, 11
COC(=O)c1ccc(Cn2c(C)c(C(=O)NCc3ccc(Cl)c(Cl)c3)sc2=O)o1
    -2.0, -2.0, -23, -12
CC(=O)N1[C@H](CO)[C@@H](c2ccc(C3=CCCC3)cc2)C12CN(C(=O)C1CC1)C2
    0.5, -0.4, 10, 3
CN1OC[C@@H]2CN(C(=S)NCCc3ccccc3)[C@H](c3ccc(N4CCCCC4)cc3)C[C@@H]21
    -2.8, 6.8, -30, -10
CC(C)c1cc(Cn2c3ccccc3c(=O)n2C(C)Cn2cc(C3CC3)nn2)on1 (configuration not stated)
    1.9, -3.6, -3, 1
C[C@@H]1CCCCO[C@@H](CN(C)CC2CCCCC2)[C@H](C)CN([C@H](C)CO)C(=O)c2cc(NS(=O)(=O)c3ccc(F)cc3)ccc2O1
    2.0, 2.7, 8, 5
CO[C@H]1CN(C)C(=O)c2cc(NS(C)(=O)=O)ccc2OC[C@H](C)N(CC2CCCCC2)C[C@@H]1C
    0.9, 1.2, -11, -2
C[C@@H]1CN([C@@H](C)CO)S(=O)(=O)c2ccc(-c3cccc(F)c3)cc2O[C@@H]1CN(C)C
    0.1, -0.5, 2, 0
CO[C@H]1CN(C)C(=O)c2ccc(NC(=O)C3CCCCC3)cc2OC[C@@H](C)N(Cc2cccnc2)C[C@@H]1C
    2.5, 0.7, -6, -8
CO[C@@H]1CN(C)C(=O)c2cc(NS(=O)(=O)CC(F)(F)F)ccc2OC[C@@H](C)N(Cc2ccccn2)C[C@H]1C
    -12, 1.0, 4, 3
COC(=O)[C@H]1[C@H](CO)[C@H]2Cn3c(ccc(-c4cccc(OC)c4)c3=O)[C@H]2N1Cc1nccs1
    -1.2, -1.7, -4, -2
CCCNC(=O)N1C[C@@H]2[C@H](c3ccccc31)[C@H](CO)N2C(=O)NCCC
    -0.2, -0.5, 5, 6
C[C@@H]1CN([C@H](C)CO)C(=O)Cc2cc(NC(=O)C3CC3)ccc2O[C@@H]1CN(C)S(=O)(=O)c1ccccc1
    -0.2, 3.0, 8, 4
C/C=C/c1cnc2c(c1)C(=O)N([C@@H](C)CO)C[C@H](C)[C@@H](CN(C)Cc1cccc(C(=O)O)c1)O2
    -2.9, -1.9, 17, 6
COCC#Cc1ccc2c(c1)O[C@@H](CN(C)C(=O)CN(C)C)[C@H](C)CN([C@@H](C)CO)S2(=O)=O
    -2.2, -0.6, 4, 4
C[C@H](CO)N1C[C@H](C)[C@H](CN(C)S(=O)(=O)c2cn(C)cn2)Oc2c(NS(C)(=O)=O)cccc2C1=O
    -17, 0.8, 14, 3
COc1ccc(NC(=O)Nc2cccc3c2O[C@@H](CN(C)C(=O)NC(C)C)[C@@H](C)CN([C@@H](C)CO)C3=O)cc1
    -1.5, 0.2, 3, -1
CCc1nc2c(OCCn3cccc3)cccn2c1N(C)C(=O)c1ccco1
    6.7, -1.0, 20, 12
CO[C@H]1CN(C)C(=O)c2cc(NS(=O)(=O)CC(F)(F)F)ccc2OC[C@H](C)N(Cc2ccccn2)C[C@H]1C
    -14, -0.8, 1, -2
CC(=O)N(CC(C)C)C[C@@H]1[C@H](c2ccc(C3=CCCC3)cc2)[C@H](CO)N1C(C)=O
    -0.5, -1.9, 4, 0
C[C@H](CO)N1C[C@H](C)[C@H](CN(C)C(=O)Cc2ccccc2)Oc2ncc(-c3ccccc3)cc2C1=O
    -4.9, 3.2, 8, 1
C[C@@H]1CN([C@@H](C)CO)C(=O)c2cccc(NC(=O)CCCCCC(=O)Nc3ccccc3N)c2O[C@H]1CN(C)S(C)(=O)=O
    -1.5, -0.1, 9, 13
O=C(CC(NC(=O)OCc1ccccc1)c1nn[nH]n1)OCc1ccccc1 (configuration not stated)
    -3.1, 1.5, -3, 1
CN1c2ccc(C3=CCCCC3)cc2[C@@H]2[C@@H](CCN2C(=O)C2CC2)[C@@H]1CO
    ?, -0.1, -2, -13

# Grouped by structure, the compounds so far containing a CF3 group.
# Second line of a record – AF4-AF9 inh, Ecoli rRNA inh RFP, Ecoli rRNA inh OD600, Ecoli rRNA inh
C[C@H]1CN([C@@H](C)CO)C(=O)Cc2cc(NC(=O)CCC(F)(F)F)ccc2O[C@@H]1CN(C)S(=O)(=O)c1cccs1
    -1.7, -1.2, 2, 0
CO[C@@H]1CN(C)C(=O)c2cc(NS(=O)(=O)CC(F)(F)F)ccc2OC[C@H](C)N(Cc2ccccn2)C[C@H]1C
    -15, 2.7, 9, 1
CO[C@@H]1CN(C)C(=O)c2cc(NS(=O)(=O)CC(F)(F)F)ccc2OC[C@@H](C)N(Cc2ccccn2)C[C@H]1C
    -12, 1.0, 4, 3
CO[C@H]1CN(C)C(=O)c2cc(NS(=O)(=O)CC(F)(F)F)ccc2OC[C@H](C)N(Cc2ccccn2)C[C@H]1C
    -14, -0.8, 1, -2
